# Screens deposited in PubChem by National Center for Advancing Translational Sciences (NCATS).
# VDR inhibitor: inhibitors of human vitamin D receptor; P11473; 400,000 compounds, 0.93% hits; Potency, µM, for the others: max response, negative = inhibition, usual class: inhibitors; AID 504847; VDR-SRC2-3 peptide fluorescence polarization, 2 h; active = well fitted inhibition curve with a large enough effect; inconclusive = small, poorly fitted or top-dose-only effect, or another doubt; inactive = no such curve, though single readings can be large or run the other way; also: series mostly up to about 120 µM
# Target sequence (P11473 whole entry, looked up): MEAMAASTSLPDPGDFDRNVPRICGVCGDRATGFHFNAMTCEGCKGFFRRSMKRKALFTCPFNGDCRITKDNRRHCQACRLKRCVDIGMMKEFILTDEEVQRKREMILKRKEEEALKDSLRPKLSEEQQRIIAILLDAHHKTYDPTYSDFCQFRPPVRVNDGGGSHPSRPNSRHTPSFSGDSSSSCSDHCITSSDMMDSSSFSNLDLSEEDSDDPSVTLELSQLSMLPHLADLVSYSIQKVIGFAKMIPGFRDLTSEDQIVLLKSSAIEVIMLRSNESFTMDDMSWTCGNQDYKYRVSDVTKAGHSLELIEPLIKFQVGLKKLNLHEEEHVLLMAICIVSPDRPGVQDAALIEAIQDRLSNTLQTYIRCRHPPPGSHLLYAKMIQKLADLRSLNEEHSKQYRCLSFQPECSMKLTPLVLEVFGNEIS
#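 VDR–SRC2-3 interaction, FP format. Cmpds 23 nl via pintool, brief spin, 2 h ambient incubation.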
# Numbers without * were called inactive; u = inconclusive; & = joins results of further samples. % is scaled to controls: 0 for no effect and ±100 for the full control effect; potency is read from the fitted curve at half-maximal effect. An excerpt; rates above refer to the full screens.
VDR inhibitor,Molecule
6%,CC1CCN(S(=O)(=O)c2ccc(S(=O)(=O)NCc3ccccc3)cc2)CC1
14%,CC1(C)CC(C)(c2ccc(O)cc2O)N(c2ccc3ccccc3c2)C(=S)N1 (stereo not drawn)
-26%,Cc1nc2c(C(=O)NCCc3ccc(Cl)cc3)c[nH]n2c(=O)c1Cc1ccc(Cl)cc1
-9%,O=C1C=C(c2cc3ccccc3o2)C[C@@H](c2ccc(F)cc2)C1
-2%,CCN(CC)CCNC(=O)c1nn(-c2ccc(Cl)cc2)c2c1CCc1cc(OC)ccc1-2
-11%,O=C(CN1CCOCC1)NNC(=S)Nc1ccccc1
8%,Cc1ccc(-n2ncc(C(=O)NCc3ccccc3C)c2-n2cccc2)cc1
0%,C=CCOC(=O)C1=C(C)N=C2SCCC(=O)N2C1/C=C/c1ccccc1 (stereo not drawn)
17%,Cc1ccc(C(=O)n2c3ccccc3c3ccccc32)cc1
2%,CCOc1cc(C(=O)Nc2c(NC)c3ccccc3oc2=O)cc(OCC)c1OCC
-12%,COc1cccc(Nc2nc3ccc(C(=O)c4ccccc4)cc3n3c(C)nnc23)c1
u,CCC1Sc2ccc(S(=O)(=O)CCC(=O)Nc3ccc(C(=O)OC)cc3)cc2NC1=O (stereo not drawn)
-6%,Cc1ccc(C(C)C)cc1OCCOCCN1CCCC1
-15%,CC(=O)N1CCC2(CCN(Cc3ccc(C#N)cc3)CC2)CC1
-11%,Cc1ccc(C(=O)N(C)CC(=O)Nc2cccc(C)c2C)o1

# The list goes on.
VDR inhibitor,Molecule
8%,Cc1c(Cl)cccc1NC(=O)NCc1cccnc1
15%,CCCCCCCOC(=O)c1ccc(OC(=O)c2cccnc2)cc1
-4%,O=C(NCCO)c1ccc2[nH]c3ccccc3c2c1
-15%,O=C(NCC(c1ccco1)N1CCc2ccccc2C1)C(=O)Nc1ccccc1F (stereo not drawn)
7%,CC(=O)c1cc(-c2ccc(F)cc2)n(CCC(=O)NCc2ccccc2C)c1C
-27%,Cc1ccc(S(=O)(=O)N2CCC(c3nnc(SCCN4CCCC4)n3C)CC2)cc1
-3%,Cc1ccc(C(=O)Nc2ccc(C(=O)N3CCCCC3C)cc2)cc1 (stereo not drawn)
20%,CCn1c(Cc2ccc(OC)cc2)nnc1SCC(=O)Nc1nc2ccccc2s1
-11%,C=C1CCN([C@H](C(=O)NCc2ccc(OC)cc2)C(C)C)S(=O)(=O)c2ccccc21
5%,COc1ccc(C2C(C#N)=C(N)N(Nc3ccccc3)C3=C2C(=O)CC(C)(C)C3)cc1C (stereo not drawn)
-11%,COc1ccc(C2CC(=O)C(C=NCC(C)C)=C(O)C2)cc1 (stereo not drawn)
6%,COc1ccc(N2CCN(C(CNC(=O)C(=O)NCc3cccnc3)c3cccnc3)CC2)cc1 (stereo not drawn)
13%,CN1CCN(C(=O)/C=C/c2ccccc2)CC1
2%,CCCCN(CC)C(=O)c1cc2c(=O)n3cccc(C)c3nc2n1C
-4%,CC(=O)N[C@H]1[C@H]([C@H](O)[C@H](O)CO)OC(C(=O)O)=C[C@@H]1O

# Some of the entries above, set out differently.
SMILES | VDR inhibitor
Cc1c(Cl)cccc1NC(=O)NCc1cccnc1 | 8%
CCCCCCCOC(=O)c1ccc(OC(=O)c2cccnc2)cc1 | 15%
O=C(NCCO)c1ccc2[nH]c3ccccc3c2c1 | -4%

# Four entries from above in a different format.
Compound: CC(=O)c1cc(-c2ccc(F)cc2)n(CCC(=O)NCc2ccccc2C)c1C
- VDR inhibitor: 7%
Compound: Cc1ccc(S(=O)(=O)N2CCC(c3nnc(SCCN4CCCC4)n3C)CC2)cc1
- VDR inhibitor: -27%
Compound: Cc1ccc(C(=O)Nc2ccc(C(=O)N3CCCCC3C)cc2)cc1 (stereo not drawn)
- VDR inhibitor: -3%
Compound: CCn1c(Cc2ccc(OC)cc2)nnc1SCC(=O)Nc1nc2ccccc2s1
- VDR inhibitor: 20%

# (listing goes on)
VDR inhibitor,Molecule
-9%,O=C(Nc1ncc(S(=O)(=O)c2ccc([N+](=O)[O-])cc2)s1)c1ccccc1F
-1%,COc1ccc(NC(=O)c2ccc(Cn3cc(Cl)cn3)cc2)cc1
-20%,CCCOC(=O)Nc1nc(-c2ccc(C)cc2)c(C)s1
-14%,CC1CN(C(=O)Cc2ccc(-c3ccccc3)cc2)CC(C)O1 (stereo not drawn)
-6%,CC(NC(=O)Nc1ccccc1F)C(C)(C)C (stereo not drawn)
-6%,CSc1cccc(Nc2cc(C(=O)NC3CCCCC3)c3ccccc3n2)c1
17%,CCNC(=S)NNc1nc(N2CCCCC2)nc(N2CCOCC2)n1
9%,Cc1cc(C)c2c(ccc3ccccc32)n1
-2%,COc1ccc(CCNC(=O)CN2CCCc3ccccc32)cc1OC
5%,COc1ccc(C2=NN(C(C)=O)C(c3cn(-c4ccccc4)nc3-c3cccs3)C2)cc1 (stereo not drawn)
-4%,Cc1ccc(CNS(=O)(=O)c2ccc([N+](=O)[O-])cc2)cc1
5%,CC(Oc1ccc(F)cc1)C(=O)Nc1ccc(N2CCOCC2)cc1N1CCOCC1 (stereo not drawn)
-9%,C#CCOCCOCCOCCNc1nc(N2CCN(C(=O)Cn3cc(CC(C)O)nn3)CC2)nc(N2CCN(C(=O)[C@H]([C@@H](C)CC)n3cc(CCCCN)nn3)CC2)n1 (stereo partly drawn)
11%,OCC1CCCN(C2CCN(Cc3nc(Cc4cccc(C(F)(F)F)c4)no3)CC2)C1 (stereo not drawn)
5%,COc1ccccc1NC(=O)C1CCN(S(=O)(=O)c2cn(C)cn2)CC1

# Some of these compounds in order of count of non-hydrogen atoms, smallest number first:
VDR inhibitor,Molecule
-1%,COc1ccc(NC(=O)c2ccc(Cn3cc(Cl)cn3)cc2)cc1
11%,OCC1CCCN(C2CCN(Cc3nc(Cc4cccc(C(F)(F)F)c4)no3)CC2)C1 (stereo not drawn)
5%,COc1ccc(C2=NN(C(C)=O)C(c3cn(-c4ccccc4)nc3-c3cccs3)C2)cc1 (stereo not drawn)

# The list goes on:
VDR inhibitor,Molecule
28µM*,CC(CCC(=O)O)C1CCC2C3CC[C@H]4CC(O)CC[C@@]4(C)C3C=C[C@]12C (stereo partly drawn)
12%,CCN(CC(=O)Nc1ccc(NC(C)=O)cc1)C(=O)c1cccc(S(=O)(=O)N2c3ccccc3CC2C)c1 (stereo not drawn)
2%,CCOC(=O)c1c(C)[nH]c(CCC(=O)NCCCN2CCN(c3cc(C)ccc3C)CC2)c1C
12%,Cc1ccccc1Cn1nc(C)c(NC(=O)c2noc3c2CC(C(C)(C)C)CC3)c1C (stereo not drawn)
19%,CC(C)CCNC(=O)CN(Cc1ccc2c(c1)OCO2)C(=O)CCC(=O)Nc1ccccn1
-4%,COc1ccc(Cc2c(O)nc(SCC(=O)c3ccc(OC)cc3)[nH]c2=O)cc1
-9%,Cc1cccc(Cc2nnc(CCC(=O)N(C)C3CCOC3)o2)c1 (stereo not drawn)
8%,Cc1cccc(C)c1NC(=O)Cn1c(SCC(=O)NCc2ccccc2)nc2ccccc21
-8%,O=C(Nc1ccccc1C(=O)O)c1cccc(NC(=O)c2ccco2)c1
-6%,Cc1ccc(-c2csc(N)n2)cc1
79µM*,O=C(CSc1ccc([N+](=O)[O-])cc1)Nc1cccc(S(=O)(=O)Nc2ccccc2F)c1
-14%,O=C(Nc1ccc([N+](=O)[O-])cc1)Nc1ccon1
12%,NNC(=O)CNc1cccc(Br)c1
9%,CCN(c1ccccc1)S(=O)(=O)c1cc2c3c(c1)C(C)C(=O)N3CCC2 (stereo not drawn)
8%,Cc1ccc(-c2nc(=S)c3c(n2CCN2CCOCC2)CC(C)(C)OC3)cc1

# More results
VDR inhibitor,Molecule
16%,CC1=C(c2ccc(F)cc2)S(=O)(=O)N=C1N1CCC(C(=O)NCCc2ccccc2)CC1
2%,C=CCNC(=S)Nc1ccccc1-c1nnc2n1CCCCC2
1%,Cc1ccc(N2CCN(/N=C/c3c(C)nn(-c4ccccc4)c3Cl)CC2)cc1
-4%,Cc1ccc(C(O)C(=O)c2ccco2)cc1 (stereo not drawn)
-5%,Cc1cc(C)n(C(C)CNS(=O)(=O)c2ccc(Cl)cc2)n1 (stereo not drawn)
-7%,Cc1[nH]nc2oc(=O)c(CCO)c(C)c12
-8%,COc1ccc(NCc2nnc(SCC(=O)Nc3cccc(C)c3)o2)cc1
2%,COc1ccc(-c2noc(-c3ccc(N4CCN(c5ccccc5)CC4)c([N+](=O)[O-])c3)n2)cc1
-10%,Cc1nnc(N2C(=O)c3oc4ccccc4c(=O)c3C2c2cccc(OCCC(C)C)c2)s1 (stereo not drawn)
5%,Fc1cccc(C2CC(c3cccc(Br)c3)Nc3nnnn32)c1 (stereo not drawn)
-4%,CCOC(=O)c1ccc(NC(=O)CNC(=O)c2ccccc2)cc1
-1%,O=C(c1ccc2c(c1)N(Cc1cccc(Cl)c1)C(=O)c1ccccc1S2(=O)=O)N1CCC(Cc2ccccc2)CC1
24%,O=C(C1=C(O)C(=O)N(CCN2CCOCC2)C1c1ccccc1)c1cccs1 (stereo not drawn)
-7%,CCOC(=O)NC1(C(F)(F)F)N=C(c2ccccc2)NC1=O (stereo not drawn)
1%&-3%,Cc1ccc(NC(=O)Cn2c(CCC(=O)O)ccc2-c2cccs2)cc1

# (continued)
VDR inhibitor,Molecule
4%,COc1ccc(Cn2c(CNS(=O)(=O)c3ccc4c(c3)CCCC4)nc3cccnc32)cc1
-16%,CCOc1ccccc1C(=O)Oc1c(S(=O)(=O)c2ccc(C)cc2)c(C)nn1-c1ccccc1
-6%,CCOC(=O)CNC(=O)CN1CCCN(S(=O)(=O)c2ccc(Br)s2)CC1
6%,O=C(CC1C(=O)N(c2ccc(F)cc2)C(=O)N1Cc1cccnc1)Nc1ccc(F)cc1 (stereo not drawn)
6%,O=C(CCC1CC(=O)Nc2ccccc21)NCc1ccc(F)cc1 (stereo not drawn)
-6%,O=C(CCCCC(=O)NN=Cc1ccc(Cl)cc1)NN=Cc1ccc(Cl)cc1
10%,O=C(NCc1ccco1)C12CC3CC(C1)CC(C(=O)NCc1ccco1)(C3)C2
-19%,Cc1cccc(-c2oc3ccc(-c4ccc5c(c4)OCO5)cc3c2C#Cc2cncn2C)c1
-7%,O=C1/C(=C/c2ccsc2)N2CCC1CC2
10%,CCC(=O)N=c1sc2ccccc2n1-c1ccccc1
-15%,Cc1cccc(C)c1OCC(O)CN1CCCCC1 (stereo not drawn)
-13%,CCc1nnc(NC(=O)CSc2nc3ccccc3o2)s1
-24%,Cn1ncc(Cl)c1C(=O)NC1CCCC1
7%,CCN1CCCC1CNC(=O)C(=O)Nc1ccccc1 (stereo not drawn)
3%,O=S(=O)(c1ccc2nc(COc3ccccc3)[nH]c2c1)N1CCOCC1

# Next part.
VDR inhibitor,Molecule
-7%,COc1cccc(-c2nnc(-c3ccc(C(F)(F)F)cc3)o2)c1OC
-13%,CC(C)(CC(=O)O)CC(=O)N1CCN(c2nc3cc(Cl)ccc3s2)CC1
u,Oc1ccc(NCc2ccccc2OCc2ccccc2Cl)cc1
12%,CCCCNC(=O)Cc1c(OC)ccc2cc(Br)ccc12
-18%,O=C(Cc1ccc(NC(=O)C2CCN(C(=O)c3ccccc3)CC2)cc1)Nc1cccc(C(=O)N2CCCCC2)c1
-1%,O=C(/C=C/c1cccc2ccccc12)N1CCOCC1
-11%,Cc1sc2nc(CSC(C)C(=O)Nc3ccccn3)[nH]c(=O)c2c1C (stereo not drawn)
8%,O=c1ncccn1[C@@H]1O[C@H](CO)C(O)[C@@H]1O (stereo partly drawn)
-7%,CCC(C)(C)n1nnnc1C(c1cc2cc3c(cc2[nH]c1=O)OCO3)N1CCN(C)CC1 (stereo not drawn)
-6%,O=C(NCc1ccccn1)c1cc(-c2ccccc2Cl)on1
17%,Cc1noc(C)c1COc1ccc(C(=O)O)cc1
-24%,COc1ccc(CCNC(=O)c2cc(-c3ccco3)nc3ccccc23)cc1
-25%,COc1c(-c2ccc(O)cc2)oc2cc(O)cc(O)c2c1=O
1%,COc1cccc(-c2cc(C(=O)N3CCN(S(=O)(=O)c4ccccc4)CC3)[nH]n2)c1
26%,COc1ccc(NC(=O)Cn2c(SCc3c(F)cccc3Cl)nc3ccncc32)cc1OC

# VDR inhibitor: what is marked active above.
VDR inhibitor,Molecule
28µM*,CC(CCC(=O)O)C1CCC2C3CC[C@H]4CC(O)CC[C@@]4(C)C3C=C[C@]12C (stereo partly drawn)
79µM*,O=C(CSc1ccc([N+](=O)[O-])cc1)Nc1cccc(S(=O)(=O)Nc2ccccc2F)c1

# Carrying on.
VDR inhibitor,Molecule
5%,COc1ccccc1OCCNC(=O)c1c(-c2ccccc2Cl)noc1C
-36%,COc1ccc(C(=O)NN=C2CCCC2)cc1
-5%,CCOC(=O)c1cc(-c2ccc(C)cc2)n(CC(=O)NCc2ccco2)c1C
4%,CCn1c(=O)c(=O)[nH]c2cc(C(=O)Nc3ccc(S(=O)(=O)N4CCCC4)cc3)ccc21
2%,c1cncc(C2Nc3ccccc3-c3nc4ccccc4n32)c1 (stereo not drawn)
1%&2%,CCCC(=O)Nc1nc2c(ncn2[C@@H]2O[C@H]3COP(=O)(O)O[C@@H]3[C@@H]2OC(=O)CCC)c(=O)[nH]1
5%,COC(=O)[C@@H]1C[C@H]1[C@@H](NS(=O)(=O)c1ccccc1)c1ccccc1
0%,Cc1nc(NC(=O)c2ccco2)sc1C(=O)O
5%,CCCCCn1c(SCCOCC)nc2c1c(=O)[nH]c(=O)n2C
6%,CCOc1ccccc1NC(=O)C1=C(C)Nc2ncnn2C1c1ccc(NC(C)=O)cc1 (stereo not drawn)
1%,CS(=O)(=O)N1CC2CCCN2c2cc(C(F)(F)F)ccc21 (stereo not drawn)
-8%,Cc1c(C(=O)N(C)C(C)c2ccncn2)oc2c(F)cccc12 (stereo not drawn)
-12%,CC(C)(C)c1ccc2c(c1)N(CC(=O)N1CCOCC1)C(=O)CO2
-29%,O=C(CSc1nc(Nc2ccccc2)nc(N2CCOCC2)n1)Nc1cccc([N+](=O)[O-])c1
-5%,CCN(CC)S(=O)(=O)c1ccc2oc(C(=O)N3CCc4ccccc4C3)c(C)c2c1
-1%,O=C(CN(C(=O)c1ccccc1Cl)C1CCCCC1)Nc1ccc(Cl)c([N+](=O)[O-])c1
